2A StopGo – lowers the luciferase signal of an FMDV 2A StopGo reporter; human cells with a luciferase reporter of 2A StopGo recoding; control for the full effect not named in the record; Potency, µM (highest dose often 57.9 µM), inactives show top-dose signal change, negative = less light; 410,000 tested, 1.2% active; AID 1159524; active = well fitted falling curve with a large enough effect; inconclusive = small, poorly fitted or top-dose-only effect; inactive = no such curve, though single readings can be large or run the other way; tested in HEK293T cells; also: % is scaled to controls: 0 for no effect and ±100 for the full control effect; nearly all actives have a fitted effect of over 45% in size; luciferase light after 4 h
Cruzain noTriton – cruzain (T. cruzi) inhibition without detergent; Potency, µM, without a hit: max response, negative = inhibition, most hits filed as inhibitors; P25779; purified cruzain, Z-FR-AMC fluorescence, no detergent; 200,000 tested, 2.3% active; AID 1476;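 also: plate controls were enzyme without inhibitor for no effect and buffer without enzyme for full effect; nearly all actives have a fitted effect of over 40% in size; top concentration of the series not given in the record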
Target sequence (P25779 123-467 limits assumed): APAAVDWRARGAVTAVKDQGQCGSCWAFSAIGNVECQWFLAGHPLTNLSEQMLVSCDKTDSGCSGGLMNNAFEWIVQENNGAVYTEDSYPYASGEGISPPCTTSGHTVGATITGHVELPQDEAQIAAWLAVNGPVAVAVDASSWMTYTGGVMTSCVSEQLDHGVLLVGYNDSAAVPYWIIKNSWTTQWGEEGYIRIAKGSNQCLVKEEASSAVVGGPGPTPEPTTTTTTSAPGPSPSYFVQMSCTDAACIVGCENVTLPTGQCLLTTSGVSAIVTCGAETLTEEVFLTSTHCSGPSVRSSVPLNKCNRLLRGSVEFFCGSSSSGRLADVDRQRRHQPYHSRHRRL
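Purified cruzain at 1.5 nM, pre-incubated 15 min with compound at room temperature in 100 mM sodium acetate pH 5.5, 5 mM DTT, 0.00005% Triton X-100. Reaction started with 2 uM Z-FR-AMC; AMC fluorescence increase over 60 s gives rate.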
RE007 growth inh – less growth of the S. pombe RE007 Vpr strain; S. pombe RE007 Vpr strain, BacTiter-Glo ATP luminescence, 24 h; control for the full effect not named in the record; 360,000 tested, 0.21% active; AID 651644; Potency, µM (series often up to 92.2 µM), for inactives: top-dose activity change, negative = less growth; active = well fitted falling curve with a large enough effect; inconclusive = small, poorly fitted or top-dose-only effect; inactive = no such curve, though single readings can be large or run the other way;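 also: % is scaled to controls: 0 for no effect and ±100 for the full control effect; nearly all actives have a fitted effect of over 50% in size; the assay follows cell death caused by Vpr and the record does not say whether a fall means rescue or toxicity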
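Fission yeast strain RE007, carrying one chromosomally integrated HIV-1 vpr copy, was seeded at OD 0.01 in PMG+AL medium with 23 nL pinned compound. After 24 h at 30 °C and 99% humidity, viability was read by BacTiter-Glo luminescence.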
Cruzain Triton – inhibitors of Trypanosoma cruzi cruzain with detergent | P25779 | purified cruzain, Z-FR-AMC fluorescence, 0.01% Triton | Potency, µM, for the others: max response, negative = inhibition, most hits filed as inhibitors | 200,000 tested, 0.43% active;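 also: plate controls were neutral wells for no effect and buffer without enzyme for full effect; nearly all actives have a fitted effect of over 40% in size; top concentration of the series not given in the record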
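Detergent-containing run (0.01% Triton X-100) in acetate buffer pH 5.5 with 5 mM DTT: enzyme at 1.5 nM final, 15 min compound preincubation at room temperature, then 2 uM Z-FR-AMC substrate. Activity taken as 60 s fluorescence increase at 360/450 nm.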
Marburg entry inh – blocks Marburg virus binding to or entry into cells | Marburg virus pseudotyped entry inhibition, cell reporter; control for the full effect not named in the record; about a third of the inactives were read at about 46 µM | AID 540276 | Potency, µM (series often up to 37.8 µM), inactives show top-dose activity change, negative = inhibition, most hits filed as inhibitors | 300,000 tested, 1.8% active; active = well fitted inhibition curve with a large enough effect; inconclusive = small, poorly fitted or top-dose-only effect, or effect the other way; inactive = flat fitted curve, though single readings scatter; tested in HEK293 cells; about a fifth of its hits are not listed in these tables; also: % is scaled to controls: 0 for no effect and ±100 for the full control effect; luciferase read-out
LASV entry inh – blocks Lassa virus binding to or entry into cells | Lassa virus pseudotype entry inhibition, cell reporter; control for the full effect not named in the record | 300,000 tested, 1.2% active | AID 540256 | Potency, µM (top dose mostly 37.9 µM), for inactives: top-dose activity change, negative = inhibition, hits mostly inhibitors; active means well fitted inhibition curve with a large enough effect; inconclusive means small, poorly fitted or top-dose-only effect, or effect the other way; inactive means flat fitted curve, though single readings scatter; tested in HEK293 cells; also: % is scaled to controls: 0 for no effect and ±100 for the full control effect; nearly all actives have a fitted effect of over 50% in size; luciferase read-out
NS1 function inh – influenza NS1 inhibition; S. cerevisiae slowed by influenza A NS1, growth recovery by OD600; Potency, µM (series often up to 46.1 µM), for the others: at the top dose activity, positive = more growth; 270,000 tested, 0.4% active; active means well fitted rising curve with a large enough effect; inconclusive means small, poorly fitted or top-dose-only effect; inactive means no such curve, though single readings can be large or run the other way; also: nearly all actives have a fitted effect of over 50% in size
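In this qHTS, NS1 from influenza A is expressed in budding yeast, where it slows growth. Cells are switched from glucose to 2% galactose medium (pH 6.0, -URA), treated with compound, and growth recovery is read at OD600.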
SARS PLP yeast – SARS-CoV PLP inhibition in yeast | 330,000 tested, 0.19% active | S. cerevisiae expressing SARS-CoV PLpro, growth rescue; control for the full effect not named in the record | Potency, µM (highest dose often 32.9 µM), for inactives: top-dose activity, positive = growth rescue | AID 485353; active means well fitted rising curve with a large enough effect; inconclusive means small, poorly fitted or top-dose-only effect; inactive means no such curve, though single readings can be large or run the other way; also: 0% is about no effect; nearly all actives have a fitted effect of over 55% in size; growth read by luminescence after 48 h
An asterisk follows results filed as active; ? = inconclusive; · = no result given; & = joins results of further samples; [ ] = remark or other dose. Unless noted, calls follow the shape of the dose curve; as a rule, active = well fitted curve in the direction sought with a large enough effect; inconclusive = small, poorly fitted or top-dose-only effect, or another doubt; inactive = no such curve, though single readings can be large; an effect the other way counts as inactive or inconclusive. Potency is read from the fitted curve at half-maximal effect.

Structure,2A StopGo,Cruzain noTriton,RE007 growth inh,Cruzain Triton,Marburg entry inh,LASV entry inh,NS1 function inh,SARS PLP yeast
Cc1ccc(C(=O)NC(=S)Nc2cccc(NC(=O)c3ccccc3)c2)cc1[N+](=O)[O-],0%,?,1%,-3.0%,?,?,?,3%
COc1ccc(NC(=O)CN(C)C(=O)c2ccc(S(=O)(=O)Nc3ccccc3F)cc2)cc1,-1%,·,2%,·,?,-2%,·,·
CCOC(=O)C1=C(CC)Nc2ccccc2N=C1NC(=O)CCNC(C)=O,0%,·,31%,·,3%,2.8µM*,·,0%
COc1cccc2c(=O)n(CC(=O)N3CCN(c4ccccc4)CC3)ccc12,-21%,-3%,-4%,-6.3%,·,·,-8%,-20%
COCc1ccc(CN2CCC(n3nccc3NC(=O)C(OC)c3ccccc3)CC2)o1 (stereo not drawn),-13%,·,-8%,·,?,11%,2%,-3%
COc1ccc(-n2nc(C(=O)NCC(=O)NCCCN3CCCCCC3)c3ccccc3c2=O)cc1Cl,-3%,·,-14%,·,?,1%[46.1 µM],?,1%
CC(=O)NS(=O)(=O)c1ccc(NC(=O)NC2CCCCC2)cc1,-18%,-11%,-14%,4.8%,18%,-6%,11%,-10%
O=C(c1cc(C2CC2)on1)N1CCCC(N2CCN(c3ccc(F)cc3)CC2)C1 (stereo not drawn),-22%,·,-8%,·,·,·,9%,2%
COc1ccc(C2c3c(oc4ccccc4c3=O)C(=O)N2Cc2ccncc2)cc1OC (stereo not drawn),9%,·,0%,·,33%&33%,-5%,?,·
CC1CN(Cc2cc(=O)oc3cc(O)ccc23)CC(C)O1 (stereo not drawn),-21%,·,-13%,·,7%[46.1 µM],5%[46.1 µM],25%,6%
C=CCNC(=S)N1CCC(C(N)=O)CC1,8%,·,17%,·,?,13%,·,1%
Cc1ccc(NC(=O)CSc2nc(=O)cc(N)n2-c2ccccc2)cc1,1%&7%,-14%&-4%,-8%,-17%&-4.6%,-2%[46.1 µM],14%[46.1 µM],15%,-2%
O=C(COC(=O)c1ccc(Br)o1)NCC1CCCCC1,5%,·,-5%,·,?,-19%,·,-7%
O=C1c2ccc(-c3ccc4c(c3)C(=O)N(CCO)C4=O)cc2C(=O)N1CCO,36%[activator],·,-2%,·,·,·,-4%,0%
O=C(CCS(=O)(=O)c1ccccc1)Nc1ccc(N2CCOCC2)cc1,9%,·,-6%,·,2%[46.1 µM],26%[46.1 µM],·,-1%
COc1ccc(CC(=O)Nc2ccc(-c3csc(C)n3)cc2)cc1,-1%,0%,13%,2.8%,3%,11%,-10%,2%
Cc1ccc(CN2C(=O)CCC2C(=O)NCc2ccc3c(c2)OCO3)cc1 (stereo not drawn),-24%,-10%,-6%,-1.3%,5%,-6%,-5%,-3%
CCCn1nc(C(=O)NNC(=O)C2CSC3(C)CCC(=O)N23)c2ccccc2c1=O (stereo not drawn),4%,·,4%,·,?,-9%,·,10%
C/C=C/Cn1c(Br)nc2c1c(=O)[nH]c(=O)n2C,-21%,2%,-10%,-0.4%,2%,?,-1%,1%
Cc1cc(C)nc(N2CCCC(C(=O)Nc3ccc4c(c3)OCCO4)C2)n1 (stereo not drawn),-8%,-22%,13%,2.4%,5%,?,-2%,8%
COc1cc(NC(=O)c2sc(C)nc2C)c(OC)cc1NC(=O)c1ccccc1,-19%,·,-16%,·,-4%,·,7%,1%
OCCC1CN(Cc2ccc(Oc3ncccn3)cc2)CCN1C1CCCCC1 (stereo not drawn),-19%,·,7%,·,·,·,-2%,1%
COc1ccc(CCC(=O)NC2CCCc3ccccc32)cc1OC (stereo not drawn),42%[activator],·,4%,·,2%[46.1 µM],4%,0%,-1%
CC(OC(=O)c1ccc(Cl)c(S(=O)(=O)N2CCOCC2)c1)C(=O)NC1CCCCC1C (stereo not drawn),?,·,4%,·,-4%,?,7%,4%
Cc1ccc(/C(O)=C2/C(=O)C(=O)N(CCCn3ccnc3)C2c2ccccn2)cc1 (stereo not drawn),·,2%,·,3.0%,·,·,-6%,5%
COCCNC(=O)C1(S(=O)(=O)c2ccccc2)CC=CC1,28%,·,-6%,·,·,·,-5%,2%
COc1ccc(-n2c(C)cc(C(=O)COC(=O)c3cc(OC)c(OC)cc3NC(=O)c3cccs3)c2C)cc1,-3%,-16%,-3%,-1.9%,?,13%,1%,17%
Cn1cc(CN(CCCN2CCOCC2)C(=S)Nc2cccc(Cl)c2)c2ccccc21,-16%,19%,3%,-2.4%,?,?,3%,-15%
CCC(C)[C@H](NC(=O)Nc1ccc2c(c1)OCCO2)C(=O)OC (stereo partly drawn),3%,·,-5%,·,25%[46.1 µM],8%[46.1 µM],3%,-2%
CCCOc1ccc(C(=O)Nc2ccc3oc(-c4ccc(N(C)C)cc4)nc3c2)cc1,2%,6%,·,-1.1%,·,-3%[46.1 µM],·,·
CCc1c(C)sc2nc3c(C(=O)N4CCOCC4)cc(C(=O)c4cc(F)ccc4O)cn3c(=O)c12,-6%,·,-4%,·,?,5%[46.1 µM],·,3%
Cc1ccccc1Oc1cc(NC(=O)CCCn2nc(C)c([N+](=O)[O-])c2C)cc([N+](=O)[O-])c1,?,-19%,8%,-7.1%,?,-18%,4%,-9%
Cc1ccc(C(=O)NC(=S)Nc2ccc3c(c2)OCCO3)c(C)c1,-3%,-7%,-18%,-3.3%,7%,-13%,-48%,-6%
COC(=O)c1ccc(Cn2nc(-c3ccc(C)cc3)ccc2=O)cc1,-22%&-7%,7%,2%,-2.1%,17%[46.1 µM],25%[46.1 µM],-5%,-1%
CCOc1ccccc1NC(=O)Cn1nnc(C(=O)NCc2ccc3c(c2)OCO3)c1N,-25%,·,-5%,·,·,·,2%,-4%
COc1ccc(NC(=O)CCN(c2ccc(OC)cc2)S(=O)(=O)c2ccc(C)c(C)c2)cc1,-3%,·,11%,·,-29%,?,·,·
CCOc1cc(/C=N/NC(N)=O)cc(Br)c1OCc1ccccc1,?,-3%,9%,4.0%,·,·,-29%,-7%
CN(C)Cc1ccccc1Sc1cccc2ccccc12,?,0%,0%,-4.8%,21µM*,15µM*,-22%,-33%
COc1ccccc1NC(=O)c1ccc(NS(=O)(=O)c2ccc(F)c(Cl)c2)cc1,-8%,7%,-4%,-4.8%,?,2%,5%,8%
O=C(NN=C1CCCC1)C(=O)Nc1cccc(C(F)(F)F)c1,51%[activator],1%,-2%,1.8%,?,-6%,-2%,-1%
O=C1CCCc2oc3ccc(O)cc3c21,7%,6%,-6%,-0.3%,14%,0%,-3%,13%
Cc1cccc(N(C(=O)c2snc(C(N)=O)c2N)C(C(=O)NC2CCCC2)c2ccncc2)c1 (stereo not drawn),-7%,·,-4%,·,?,·,-9%,0%
COc1ccc(C)cc1-n1nnnc1SCC(=O)c1ccc2c(c1)OCCO2,16%,25µM*,-18%,0.0%,0%,21%,1%,0%
Cc1ccc(C(=O)C2CCN(CC(=O)N3CCN(c4ccc(F)cc4)CC3)CC2)cc1,-22%,·,7%,·,?,-22%[46.1 µM],·,-4%
COc1cc([N+](=O)[O-])ccc1NC(=O)NCc1cccnc1,-9%,·,5%,·,·,·,-17%,0%

Exported as labelled records: part of the list above.
canonical_smiles: Cc1ccccc1Oc1cc(NC(=O)CCCn2nc(C)c([N+](=O)[O-])c2C)cc([N+](=O)[O-])c1
  2A StopGo: ? | Cruzain noTriton: -19% | RE007 growth inh: 8% | Cruzain Triton: -7.1% | Marburg entry inh: ? | LASV entry inh: -18% | NS1 function inh: 4% | SARS PLP yeast: -9%
canonical_smiles: CCOc1ccccc1NC(=O)Cn1nnc(C(=O)NCc2ccc3c(c2)OCO3)c1N
  2A StopGo: -25% | Cruzain noTriton: · | RE007 growth inh: -5% | Cruzain Triton: · | Marburg entry inh: · | LASV entry inh: · | NS1 function inh: 2% | SARS PLP yeast: -4%
canonical_smiles: Cc1ccc(C(=O)C2CCN(CC(=O)N3CCN(c4ccc(F)cc4)CC3)CC2)cc1
  2A StopGo: -22% | Cruzain noTriton: · | RE007 growth inh: 7% | Cruzain Triton: · | Marburg entry inh: ? | LASV entry inh: -22%[46.1 µM] | NS1 function inh: · | SARS PLP yeast: -4%

(cont.)
Structure,2A StopGo,Cruzain noTriton,RE007 growth inh,Cruzain Triton,Marburg entry inh,LASV entry inh,NS1 function inh,SARS PLP yeast
CCOc1ccccc1NC(=O)Nc1ccc2c(c1)OCO2,22%,·,-2%,·,-2%[46.1 µM],-4%[46.1 µM],-24%,-3%
CC1CC1C(=O)Nc1cc(C(F)(F)F)ccc1N1CCOCC1 (stereo not drawn),-12%,·,-8%,·,·,·,14%,5%
CCc1noc(C)c1C(=O)Nc1cc(S(=O)(=O)N2CCOCC2)ccc1N1CCN(CC)CC1,-23%,·,-16%,·,-4%,-3%,·,9%
COc1ccc(S(=O)(=O)NCCCN2CCCC2=O)c(OC)c1,20%,·,-9%,·,1%[46.1 µM],24%[46.1 µM],3%,20%
Cc1ccc2oc(C(=O)N(C)Cc3cnccn3)c(C)c2c1,34%[activator],·,-5%,·,17%[46.1 µM],12%[46.1 µM],3%,-1%
O=C(NCC1CCCO1)C(c1cccs1)N(C(=O)Cn1nnc(-c2cccs2)n1)C1CCCC1 (stereo not drawn),64%[activator],?,7%,-1.7%,9%,1%,-7%,-16%
COc1ccc(OCC(O)CN(C)C(=O)C(C)Oc2ccccc2)cc1 (stereo not drawn),-13%,·,-5%,·,·,·,0%,0%
